# Source: PubChem
# Vaccinia stage: blocks a specific stage of Vaccinia orthopoxvirus infection; activity change (mCherry), % (no concentration beside the values); Vaccinia-infected cells, mCherry/Venus stage reporter fluorescence; hits give low values; some inactives read as strong as hits; 0.01% of 89,000 active;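 active = mCherry past -33% and 40 or more points under the early reporter, replicates agreeing; inconclusive = past -33% without that gap or agreement; tested in A549 cells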;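 also: scaled between vehicle wells and reference inhibitor wells; 23 nL library stock went into each well; one replicate is shown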
# Vaccinia stage Venus: second read-out of Vaccinia stage, no call of its own (marks repeat the call); activity change (Venus), %; measured here: Venus reporter, other viral stage;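 negative = less Venus signal; first of two replicates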
# The depositor's hits bear a star; ? = inconclusive; · = no result given. An excerpt. The share of hits here may be higher or lower than overall.
SMILES,Vaccinia stage,Vaccinia stage Venus
C[C@@H]1CN([C@@H](C)CO)C(=O)c2cccc(NC(=O)c3ccncc3)c2O[C@@H]1CN(C)Cc1ccc(C(=O)O)cc1,36,22
COc1ccc(C#Cc2ccc([C@@H]3[C@@H](CO)N4C(=O)CN(C(=O)C5CCOCC5)C[C@H]34)cc2)cc1,-10,-27
COCC#Cc1ccc2c(c1)O[C@@H](CN(C)C(=O)CC1CC1)[C@@H](C)CN([C@@H](C)CO)S2(=O)=O,16,6
CC(C)NC(=O)N[C@H]1C=C[C@H](CC(=O)NCc2ccc(Oc3ccccc3)cc2)O[C@H]1CO,1,10
COc1cccc(NC(=O)N[C@H]2CC[C@H](CC(=O)NCc3ccncn3)O[C@@H]2CO)c1,-7,-10
C[C@@H]1CN([C@@H](C)CO)C(=O)Cc2cc(NC(=O)CCN3CCOCC3)ccc2O[C@H]1CN(C)C(=O)Nc1ccc2c(c1)OCO2,13,14
O=C(C[C@H]1CC[C@@H](NS(=O)(=O)c2ccc(F)cc2)[C@@H](CO)O1)NCCc1ccncc1,15,6
CNC[C@H]1Oc2ccc(NC(=O)C3CCCCC3)cc2CC(=O)N([C@@H](C)CO)C[C@H]1C,-6,-6
O=C(C[C@@H]1CC[C@@H](NC(=O)Nc2ccccc2F)[C@H](CO)O1)NCc1ccc(-c2ccccc2)cc1,15,17
CC(C)C#Cc1ccc2c(c1)O[C@@H](CN(C)C(=O)c1ccccn1)[C@H](C)CN([C@H](C)CO)S2(=O)=O,-4,-12
COCc1cn(CC[C@@H]2CC[C@H](NC(=O)Nc3ccc(Cl)cc3)[C@H](CO)O2)nn1,-1,12
C[C@@H]1CN([C@H](C)CO)S(=O)(=O)c2ccc(C#CCN(C)C)cc2O[C@H]1CN(C)Cc1ccccn1,-8,-9
C[C@H]1CCCCO[C@H](CN(C)C(=O)Nc2ccc(C(F)(F)F)cc2)[C@@H](C)CN([C@@H](C)CO)C(=O)c2cc(NS(=O)(=O)c3ccccc3)ccc2O1,-1,13
COc1ccccc1-c1ccc([C@@H]2[C@@H](C#N)N[C@@H]2CO)cc1,5,2
CN(C)C(=O)c1cccc(-c2cccc(-c3nc(C(=O)NCc4ccccc4)cc4c3[C@H](CCO)N([S@@](=O)C(C)(C)C)C4)c2)c1,-28,-13
Cc1noc(C)c1NC(=O)Nc1cccc2c1O[C@@H](CN(C)Cc1ccc(Cl)c(Cl)c1)[C@H](C)CN([C@H](C)CO)C2=O,-14,-9
O=C1CN(S(=O)(=O)Cc2ccccc2)C[C@@H]2[C@@H](c3ccc(C#Cc4cccnc4)cc3)[C@@H](CO)N12,?,·
CCCNC(=O)NC[C@H]1[C@H](c2ccc(C3=CCCCC3)cc2)[C@@H](CO)N1C(C)=O,-7,2
CO[C@@H]1CN(C)C(=O)c2ccc(NC(=O)c3cnccn3)cc2OC[C@@H](C)NC[C@H]1C,1,7
COc1ccc(C#Cc2ccc([C@H]3[C@H](CO)N4CCCCN(S(=O)(=O)c5ccccc5)C[C@@H]34)cc2)cc1,3,-7

# Exported with tabs: entries from further up.
SMILES	Vaccinia stage	Vaccinia stage Venus
O=C(C[C@H]1CC[C@@H](NS(=O)(=O)c2ccc(F)cc2)[C@@H](CO)O1)NCCc1ccncc1	15	6
CNC[C@H]1Oc2ccc(NC(=O)C3CCCCC3)cc2CC(=O)N([C@@H](C)CO)C[C@H]1C	-6	-6
O=C(C[C@@H]1CC[C@@H](NC(=O)Nc2ccccc2F)[C@H](CO)O1)NCc1ccc(-c2ccccc2)cc1	15	17
CC(C)C#Cc1ccc2c(c1)O[C@@H](CN(C)C(=O)c1ccccn1)[C@H](C)CN([C@H](C)CO)S2(=O)=O	-4	-12
COCc1cn(CC[C@@H]2CC[C@H](NC(=O)Nc3ccc(Cl)cc3)[C@H](CO)O2)nn1	-1	12
C[C@@H]1CN([C@H](C)CO)S(=O)(=O)c2ccc(C#CCN(C)C)cc2O[C@H]1CN(C)Cc1ccccn1	-8	-9
C[C@H]1CCCCO[C@H](CN(C)C(=O)Nc2ccc(C(F)(F)F)cc2)[C@@H](C)CN([C@@H](C)CO)C(=O)c2cc(NS(=O)(=O)c3ccccc3)ccc2O1	-1	13
COc1ccccc1-c1ccc([C@@H]2[C@@H](C#N)N[C@@H]2CO)cc1	5	2
CN(C)C(=O)c1cccc(-c2cccc(-c3nc(C(=O)NCc4ccccc4)cc4c3[C@H](CCO)N([S@@](=O)C(C)(C)C)C4)c2)c1	-28	-13
Cc1noc(C)c1NC(=O)Nc1cccc2c1O[C@@H](CN(C)Cc1ccc(Cl)c(Cl)c1)[C@H](C)CN([C@H](C)CO)C2=O	-14	-9
O=C1CN(S(=O)(=O)Cc2ccccc2)C[C@@H]2[C@@H](c3ccc(C#Cc4cccnc4)cc3)[C@@H](CO)N12	?	·

# Arranged by molar mass (falling): three of the compounds above
SMILES,Vaccinia stage,Vaccinia stage Venus
CN(C)C(=O)c1cccc(-c2cccc(-c3nc(C(=O)NCc4ccccc4)cc4c3[C@H](CCO)N([S@@](=O)C(C)(C)C)C4)c2)c1,-28,-13
CC(C)C#Cc1ccc2c(c1)O[C@@H](CN(C)C(=O)c1ccccn1)[C@H](C)CN([C@H](C)CO)S2(=O)=O,-4,-12
COc1cccc(NC(=O)N[C@H]2CC[C@H](CC(=O)NCc3ccncn3)O[C@@H]2CO)c1,-7,-10

# (more compounds)
SMILES,Vaccinia stage,Vaccinia stage Venus
NCC[C@H]1CC[C@H](NS(=O)(=O)c2ccccc2F)[C@@H](CO)O1,-5,0
COCC(=O)Nc1ccc2c(c1)[C@H]1C[C@@H](CC(=O)N[C@H](C)c3ccccc3)O[C@@H](CO)[C@H]1O2,7,11
C[C@H](CO)N1C[C@H](C)[C@@H](CN(C)C(=O)Nc2ccc3c(c2)OCO3)Oc2c(NS(=O)(=O)c3ccccc3)cccc2C1=O,1,4
CC(C)C#Cc1ccc([C@H]2[C@@H](CO)N3CCCCN(C(=O)c4ccc5c(c4)OCO5)C[C@H]23)cc1,?,·
C[C@@H]1CN([C@@H](C)CO)S(=O)(=O)c2ccc(-c3cccc(C#N)c3)cc2O[C@@H]1CN(C)Cc1ccccn1,-19,-16
O=C(NCc1ccc(F)cc1)[C@@H]1[C@@H](CO)[C@@H]2Cn3c(ccc(C4=CCCCC4)c3=O)[C@H]1N2,-4,3
CN1CCN(C(=O)c2cc3c(c(-c4cccc(-c5ccccc5F)c4)n2)[C@@H](CCO)N([S@](=O)C(C)(C)C)C3)CC1,-11,5
O=C(NC1CCCCC1)N[C@@H]1CC[C@H](CCNS(=O)(=O)c2ccccc2)O[C@H]1CO,-11,-11
Cc1cc(C(=O)Nc2cccc3c2O[C@H](CN(C)C(=O)Nc2ccc(F)cc2)[C@H](C)CN([C@H](C)CO)C3=O)n(C)n1,7,2
CCCN1[C@H](CO)[C@H](c2ccc(C3=CCCCC3)cc2)[C@@H]1CNS(C)(=O)=O,-12,-25
CC(C)NC(=O)N(C)C[C@@H]1Oc2cc(-c3cncnc3)ccc2S(=O)(=O)N([C@@H](C)CO)C[C@@H]1C,17,13
CCCNC(=O)N(C)C[C@@H]1Oc2ncc(C#CCC(C)C)cc2C(=O)N([C@@H](C)CO)C[C@@H]1C,19,10
N#C[C@@H]1[C@H](c2ccccc2C2=CCCC2)[C@@H](CO)N1C(=O)C1CCOCC1,-19,-12
C[C@H](CO)N1C[C@H](C)[C@H](CN(C)C(=O)C2CCCCC2)OCCCC[C@H](C)Oc2ccc(NS(=O)(=O)c3ccccc3)cc2C1=O,?,·
O=C(N[C@H]1CC[C@H](CCNC(=O)C2CCOCC2)O[C@H]1CO)c1ccccn1,12,0
COc1ccc([Si](C)(C)[C@H]2[C@H](CCn3cc([C@H](O)c4ccccc4)nn3)O[C@@]3(C(=O)N(Cc4cccc(N5CCC5=O)c4)c4ccccc43)[C@@H]2C)cc1,3,-6
C/C=C/c1cnc2c(c1)C(=O)N([C@H](C)CO)C[C@H](C)[C@H](CN(C)C(=O)Cc1cccnc1)O2,3,-1
C[C@H](CO)N1C[C@H](C)[C@H](CN(C)Cc2ccncc2)Oc2ccc(NC(=O)CCC(F)(F)F)cc2CC1=O,7,-4
C[C@@H]1CCCCO[C@H](CN(C)C(=O)CCCN(C)C)[C@H](C)CN([C@H](C)CO)C(=O)c2cc(NC(=O)C3CCCCC3)ccc2O1,-2,-7
CNC[C@@H]1OCCCC[C@H](C)Oc2ccc(NS(=O)(=O)c3cccs3)cc2C(=O)N([C@@H](C)CO)C[C@H]1C,31,18
C[C@@H]1CCCCO[C@H](CN(C)CC2CCCCC2)[C@H](C)CN([C@H](C)CO)C(=O)c2cc(NS(=O)(=O)c3cn(C)cn3)ccc2O1,17,3
CC(C)NC(=O)N(C)C[C@@H]1OCCCC[C@@H](C)Oc2ccc(NC(=O)c3ccccc3)cc2C(=O)N([C@H](C)CO)C[C@H]1C,0,-5
Cc1noc(C)c1S(=O)(=O)N(C)C[C@@H]1OCCCC[C@@H](C)Oc2ccc(NS(=O)(=O)c3ccccc3)cc2C(=O)N([C@@H](C)CO)C[C@@H]1C,-20,-18
CO[C@@H]1CN(C)C(=O)c2ccc(NS(C)(=O)=O)cc2OC[C@@H](C)N(Cc2nccs2)C[C@H]1C,9,7
C[C@@H]1CN([C@H](C)CO)S(=O)(=O)c2ccc(C3=CCCC3)cc2O[C@H]1CN(C)C(=O)CN(C)C,-11,-6
COc1ccc(S(=O)(=O)N(C)C[C@@H]2Oc3ccc(NC(=O)CCN4CCOCC4)cc3C(=O)N([C@@H](C)CO)C[C@@H]2C)cc1,19,13
Cc1noc(C)c1NC(=O)N[C@@H]1C=C[C@@H](CC(=O)Nc2ccc(-c3ccccc3)cc2)O[C@@H]1CO,6,6
COc1cccc(CN2CC3(CN(S(C)(=O)=O)C3)c3c(n(C)c4cc(OC)ccc34)[C@@H]2CO)c1,3,-2
COc1ccc(NC(=O)Nc2ccc3c(c2)C(=O)N([C@@H](C)CO)C[C@H](C)[C@H](CN(C)C)O3)cc1,11,9
COc1ccc(NC(=O)N(C)C[C@@H]2Oc3c(NS(C)(=O)=O)cccc3C(=O)N([C@@H](C)CO)C[C@@H]2C)cc1,10,5
Cc1noc(C)c1S(=O)(=O)N(C)C[C@H]1OCCCC[C@@H](C)Oc2ccc(N(C)C)cc2C(=O)N([C@@H](C)CO)C[C@@H]1C,-6,-7
C[C@H]1CCCCO[C@@H](CN(C)C(=O)CCC(F)(F)F)[C@@H](C)CN([C@@H](C)CO)C(=O)c2cc(N(C)C)ccc2O1,6,2
C[C@H]1CN([C@@H](C)CO)C(=O)c2cc(-c3ccccc3F)cnc2O[C@@H]1CN(C)C(=O)c1ccccn1,11,3
O=C(NCC1CC1)[C@H]1[C@H](CO)[C@H]2Cn3c(ccc(/C=C/c4ccccc4)c3=O)[C@@H]1N2C(=O)C1CCC1,-4,8
CCCNC(=O)C[C@H]1CC[C@@H]2[C@H](COc3ccc(NC(=O)CC)cc3C(=O)N2C)O1,7,9
CC(C)CC#Cc1ccc2c(c1)O[C@H](CN(C)C(=O)C1CCC1)[C@@H](C)CN([C@H](C)CO)S2(=O)=O,-15,-10
CCC(=O)Nc1ccc2c(c1)OC[C@@H](C)N(C(=O)C1CCC1)C[C@H](C)[C@@H](OC)CN(C)C2=O,6,3
CCCNC(=O)NC[C@@H]1[C@@H](c2ccc(C3=CCCC3)cc2)[C@@H](CO)N1C(=O)CC,17,20
O=C(C[C@@H]1C[C@H]2c3cc(NC(=O)C4CCOCC4)ccc3O[C@H]2[C@@H](CO)O1)NCc1ccncc1,14,15
C[C@@H]1CN([C@@H](C)CO)C(=O)c2cc(-c3cccc(F)c3)cnc2O[C@@H]1CN(C)C(=O)C1CCC1,1,5
C[C@@H]1CN([C@H](C)CO)C(=O)c2cc(NS(=O)(=O)c3ccc(Cl)cc3)ccc2O[C@H]1CN(C)Cc1ccccc1,-10,-7
C[C@H]1CCCCO[C@H](CN(C)C(=O)Nc2ccc3c(c2)OCO3)[C@@H](C)CN([C@@H](C)CO)C(=O)c2cc(NC(=O)Nc3cccc4ccccc34)ccc2O1,18,12
Cc1ccc(S(=O)(=O)N(C)C[C@H]2Oc3ccc(NC(=O)CCC(F)(F)F)cc3CC(=O)N([C@@H](C)CO)C[C@H]2C)cc1,-12,-13
C[C@H](O)C#Cc1cnc2c(c1)C(=O)N([C@@H](C)CO)C[C@H](C)[C@@H](CN(C)Cc1cccc(C(=O)O)c1)O2,15,9
C[C@H](CO)N1C[C@H](C)[C@@H](CN(C)Cc2ccc(C(=O)O)cc2)Oc2c(NS(C)(=O)=O)cccc2C1=O,18,14
COc1ccccc1S(=O)(=O)N[C@@H]1C=C[C@@H](CC(=O)N2CCN(C)CC2)O[C@H]1CO,-1,-1
CC(C)CC#Cc1ccc2c(c1)O[C@@H](CN(C)C(=O)NC1CCCC1)[C@H](C)CN([C@@H](C)CO)S2(=O)=O,?,·
CCC(=O)N1[C@H](CO)[C@@H](c2ccccc2)[C@H]1CN(C(C)C)S(C)(=O)=O,12,5
CCS(=O)(=O)NCC[C@H]1CC[C@H](NC(=O)Nc2ccccc2)[C@@H](CO)O1,10,19
CC(C)NC(=O)N(C)C[C@H]1Oc2ccc(NS(C)(=O)=O)cc2C(=O)N([C@@H](C)CO)C[C@H]1C,8,0
# (next part)
SMILES,Vaccinia stage,Vaccinia stage Venus
C[C@@H]1CCCCO[C@H](CN(C)C(=O)Nc2ccccc2)[C@H](C)CN([C@H](C)CO)C(=O)c2cc(NS(=O)(=O)c3cccs3)ccc2O1,-8,-8
C[C@H](CO)N1C[C@H](C)[C@@H](CN(C)Cc2ccc3c(c2)OCO3)Oc2ccc(NC(=O)Nc3ccccc3)cc2C1=O,-5,-12
COc1ccc(NC(=O)N(C)C[C@@H]2Oc3ncc(-c4cccc(F)c4)cc3C(=O)N([C@H](C)CO)C[C@@H]2C)cc1,9,17
O=C(C[C@@H]1C[C@@H]2c3cc(NC(=O)CC4CC4)ccc3O[C@@H]2[C@H](CO)O1)NCC(F)(F)F,5,1
C[C@@H]1CN([C@@H](C)CO)C(=O)c2cc(-c3cccc(C#N)c3)cnc2O[C@@H]1CN(C)C(=O)C1CCCCC1,6,8
